Screening results from PubChem BioAssay.
Env fusion inh: blocks HIV Env-driven cell-cell fusion. HeLa-JRFL Env/CEM21 cell fusion, luciferase. inhibition, % at 12.3 µM. 360,000 tested, 1.1% active;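 active means mean replicate inhibition score of at least 50 and every replicate individually at or above 50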;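 further: 0% = plate neutral controls and 100% = maraviroc near 300 nM; one replicate is shown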
UUG fidelity: yeast start codon fidelity modulation; 350,000 tested, 0.13% active; activity score, % at 18.7 µM; AID 602363; S. cerevisiae UUG-firefly luciferase reporter, luminescence/redox ratio;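 active means replicate mean at a twofold rise or more, about +100% in these data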;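 further: firefly luciferase made from a UUG start codon reports start codon fidelity; reporter light over untreated wells divided by growth signal over untreated wells; some hits fall short of that in this replicate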
Rce1 inh: blocks yeast Ras-converting enzyme; Q03530; yeast membranes, quenched prenylated peptide cleavage fluorescence; calls only; 290,000 tested, 0.27% active; AID 2563;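 active means fall in fluorescence gain of 50% or more versus controls, with final raw signal at or below 3038400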;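 further: plate controls were neutral control wells for no effect and wells lacking membranes for full effect; tested at 10 µM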
Target sequence (Q03530 whole entry, looked up): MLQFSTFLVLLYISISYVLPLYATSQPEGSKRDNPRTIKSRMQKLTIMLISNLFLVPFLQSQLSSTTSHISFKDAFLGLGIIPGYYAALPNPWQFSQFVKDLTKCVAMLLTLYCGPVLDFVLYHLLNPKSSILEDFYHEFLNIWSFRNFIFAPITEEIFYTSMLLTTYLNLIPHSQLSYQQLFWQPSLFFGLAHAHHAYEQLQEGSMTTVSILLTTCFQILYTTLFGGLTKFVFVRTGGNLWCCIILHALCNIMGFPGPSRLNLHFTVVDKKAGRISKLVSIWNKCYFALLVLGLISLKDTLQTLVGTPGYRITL
MT1-MMP act inh: inhibitors of human MT1-MMP activation. P50281. HT1080 RFP-PRO-GFP cells, GFP/RFP ratio fluorescence, overnight; percent of plate control window, DMSO zero. GFP/RFP ratio change, % at 20 µM. 360,000 tested, 0.061% active;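 active means GFP/RFP ratio change of at least 30% with cell ATP level not reduced by more than half and red fluorescence within 50% of control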; further: strong numbers were not always called active
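Assay system: HT1080 RFP-PRO-GFP cells. Benchmarks: DMSO vehicle wells and RFP-L50D-GFP reporter cell wells. Times: overnight cell settling, then overnight compound exposure, 37 °C, 5% CO2. Compound: 20 µM single dose, 1% DMSO. Read-out basis: GFP/RFP fluorescence ratio.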
CSC inhib: cancer stem cell inhibition. cancer stem cell-like cells viability, luminescence. inhibition, % at 7.5 µM. 300,000 tested, 1.1% active. AID 2717;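 active means mean at 75% or more and at least half the replicates too; tested in HMLE shEcad cells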;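 further: 0% = median of negative and 100% = median of positive control wells; the first replicate is given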
eIF4H inh: inhibitors of RNA binding by human eIF4H; Q15056; eIF4H fluorescence polarization binding assay; inhibition, % at 35 µM; 290,000 tested, 0.94% active; AID 2012;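 active means 50% or more with normal probe brightness, or confirmed in later tests; about a fifth of its hits are not listed in these tables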;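 further: calls also rest on retests at 20 µM and on dose response follow-up; 0% = protein and probe with vehicle and 100% = probe without protein; strong numbers were not always called active; many hits fall short of the cut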
PABP FP inh: PABP-poly(A) binding inhibition; 290,000 tested, 1% active; inhibition, % at 35 µM; P11940; PABP-poly(A) RNA binding, fluorescence polarization;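 active means 50% or more with normal probe brightness, or confirmed in later tests; about a fifth of its hits are not listed in these tables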;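 further: calls also rest on retests at 20 µM and on dose response follow-up; controls were probe without protein and protein plus probe with vehicle; some compounds called inactive have numbers as strong as hits; many hits fall short of the cut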
eIF4H inh retest: recorded beside eIF4H inh, whose call it bears; inhibition, %; compound at 20 µM; confirmation average;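 mean of two retest wells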
PABP FP inh retest: recorded beside PABP FP inh, whose call it bears; inhibition, %; compound at 20 µM; confirmation repeats;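 mean of two retest wells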
MT1-MMP act inh RFP: second read-out of MT1-MMP act inh, no call of its own (marks repeat the call); RFP signal change, %; measured here: RFP expression control read;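 0 = vehicle wells; hits needed this value within 50% of zero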
* marks the source's active call; other numbers are inactive results; i = inactive; · = not tested or not shown; & = joins results of further samples; [ ] = another dose, or the depositor's remark.

SMILES	Env fusion inh	UUG fidelity	Rce1 inh	MT1-MMP act inh	MT1-MMP act inh RFP	CSC inhib	eIF4H inh	PABP FP inh	others
Cc1c(C(=O)NN2CCOCC2)oc2c1ccc1ccccc12	-12	·	i	3	2	4	-4	3
Cc1ccc(S(=O)(=O)Oc2ccc3c(c2)O/C(=C\c2cccnc2)C3=O)cc1	·	-11	i	-1	-11	4	-8	0
CCOc1ccc(-c2cc(CCCC(=O)NCc3cccnc3)no2)cc1	-1	-28	i	-3	-16	-8	-7	-19
COc1cccc(Nc2cc(C)nc3nc(C)nn23)c1	-2	-23	i	3	4	5	1	0
Clc1ccc(C2=Nn3c(nnc3-c3cc(-c4ccccc4)n[nH]3)SC2)cc1	·	4	i	-7	-10	8	-11	23
CCCCSc1nc2c(cnn2-c2ccccc2)c(=O)n1N	-37	-14	i	5	1	·	-2	-2
Cc1ccc2c(c1)c1c(n2CC(O)CN2CCCCC2C)CCCC1 (stereo not given)	-57	12	i	2	2	5	6	6
COc1ccc(/C=N/NC(=O)c2cccc([N+](=O)[O-])c2)cc1OS(=O)(=O)c1ccc(C)cc1	-36	-22	i	-6	-16	0	-19	2
Cc1ccc(C#N)c(SCc2ccccc2F)n1	-4	1	i	3	1	16	-4	3
O=C(N/N=C\c1ccc(COc2ccc([N+](=O)[O-])cc2)o1)c1cccc(Cl)c1	-45	-11	i	9	2	17	-1	-2
CCOC(=O)c1nnc(-c2ccccc2)nc1N1CCSCC1	-9	·	i	-5	-2	-4	0	-6
O=C(NCc1ccco1)c1cc2sccc2n1Cc1ccccc1	-22	3	i	-2	-4	3	3	10
Cc1ccc(CCNC(=O)C2CCCN(S(=O)(=O)c3cccs3)C2)cc1 (stereo not given)	·	-7	i	-4	-8	-13	1	9
CC(C)n1c(SCC(=O)Nc2ccc(N3CCOCC3)cc2)nnc1-c1ccco1	5	2	i	2	3	-2	11	-5
CC(C)CCNC(=O)Cc1csc(-c2ccccc2)n1	0	-9	i	-10	-6	-13	4	-2
O=C(O)CN=C1CC(c2ccccc2)CC(=O)/C1=C(/O)CCCN1C(=O)c2ccccc2C1=O (stereo not given)	15	·	i	4	4	9	-5	10
O=C(Nc1ccc(F)cc1)c1ccc(-n2cncn2)c([N+](=O)[O-])c1	6	·	i	5	-2	-6	-7	-7
C=CCNC(=O)C1CC1(c1ccccc1)c1ccccc1 (stereo not given)	-14	-3	i	1	4	7	-12	0
OCCN(CC#CC(O)(c1ccccc1)c1cccc(F)c1)CCO (stereo not given)	-7	35	i	-1	-2	·	20	13
CCCCn1c(N)c(N(CC(C)C)C(=O)C2CCN(c3ncnc4sc(C)c(C)c34)CC2)c(=O)[nH]c1=O	3	-7	i	-2	-4	-15	·	·
CCOc1cc(/C=C2/NC(=O)N(CC(=O)Nc3cccc(C)c3)C2=O)ccc1O	-10	-2	i	-6	-4	21	8	-3
CN(C)/C(=N\S(=O)(=O)c1ccccc1)c1ccc(F)cc1	12	-13	i	2	-1	-7	-6	18
CCC(C)Sc1cccc(-c2nc3cc(C)ccn3c2NCc2ccccc2)c1 (stereo not given)	6&-12	-25	i	2&4	-11&-12	123*	·	·
C/C(=N\NC(=O)C1CC1)c1ccc(OC(F)F)cc1OC(F)F	-4	-19	i	4	2	-13	1	-6
Cc1ccc(CN2CCN(Cc3nc4c(s3)CCCC4)CC2CCO)cc1 (stereo not given)	2	-14	i	0	-1	10	-2	2
COc1ccc(C(=O)N/N=C(\C)c2ccccn2)cc1OC	5	-11	i	16	7	91*	4	-14
C=CCNC(=O)COC(=O)c1ccc(C)c(NC(=O)c2ccco2)c1	-4	·	i	-1	-1	2	-1	-10
COc1cc(CNCCc2ccccc2)ccc1OCc1ccc(Cl)nc1	26	-3	i	2	5	13	-1	-2
COc1cccc(CN(C)C(=O)CC2C(=O)NCCN2C2Cc3ccccc3C2)c1 (stereo not given)	-1	-4	·	0	-1	-8	2	-10
C[C@H](CO)N1C[C@H](C)[C@@H](CN(C)Cc2ccc3c(c2)OCO3)Oc2c(NC(=O)C3CC3)cccc2C1=O	-35[16.7 µM]	2&-10	·	1	-1	-15	·	·
CCN(CC(=O)NCCC1=CCCCC1)S(=O)(=O)c1ccccc1	10	-5	i	3	0	3	3	2
O=C(NCc1ccccc1)c1ccc(OCC2CCCO2)cc1 (stereo not given)	-4	·	i	2	3	-5	7	-10
COc1ccc(Nc2cc(C(=O)NCc3ccco3)c3ccccc3n2)cc1	·	·	i	·	·	-11	-5	46
Cc1ccc(NC(=O)c2ccc(S(=O)(=O)NCC3CCCO3)cc2)cc1 (stereo not given)	·	4	i	4	-4	0	0	6
COc1nc(OCCNC(C)=O)nc(N(C)C)n1	-2	17	i	3	2	-3	-1	2
Cc1cc2c3nonc3ccc2n1C	·	-17	i	-1	-3	8	11	15
COc1ccc(-c2nnc3ccc(SCC(=O)NCc4ccco4)nn23)cc1OC	30	·	i	2	-2	-9	33	7
O=C(O)c1ccc(N=Nc2c(-c3ccccc3)[nH]oc2=O)cc1	-22	-8	i	1	0	-5	4	-9
Cc1ccc(-c2nc(C=Nc3ccc(O)cc3)c(O)o2)cc1	-93	·	·	-8	-15	·	60	-2	eIF4H inh retest=4;PABP FP inh retest=2
O=C(NCCCN1CCN(CCCNC(=O)c2ccc(F)cc2)CC1)c1ccc(F)cc1	17	-15	i	4	8	·	2	0
O=S(=O)(CS(=O)(=O)c1ccc(Cl)cc1)c1ccc(Cl)cc1	4	-19	i	0	-3	10	-6	3
CCOc1cccc2cc(C(=O)Nc3cc(C)on3)c(=O)oc12	-32	-8	i	1	0	·	2	0
COc1ccccc1NC(=O)/C(C#N)=C/c1cccn1C	-12	·	i	-3	-4	5	·	·
CCCc1cc(-c2n[nH]c(=S)n2CC)c2ccccc2n1	·	·	i	-4	1	9	-2	4
CN(C)S(=O)(=O)Oc1ccsc1C(=O)Nc1cccc(Cl)c1Cl	-18	-1	·	-1	-7	4	0	-3
O=C(NNc1cc(N2CCCC2)nc(N2CCCC2)n1)c1ccc([N+](=O)[O-])cc1	-7	·	i	1	3	15	-1	1
O=C(Nc1ccccc1F)c1ccc2c(c1)CCN2S(=O)(=O)c1ccccc1	-2	-9	i	6	-1	5	-5	5
NS(=O)(=O)c1ccc(CCNC(=O)CN2CCCCC2)cc1	-2	·	i	4	5	1	-14	-1
O=C(/C=C/c1c(F)cccc1Cl)NCc1ccco1	-17	·	i	-11	-2	-3	-11	-4
COc1ccc(S(=O)(=O)N/N=C(/C)c2cccc(NC(=O)c3ccccc3Cl)c2)cc1	·	-10	i	4	-2	0	2	10
Cc1cccc(N(C)C(=O)c2cc3c(=O)[nH]c4ccc(C)cc4c3s2)c1	-44	-12	i	-6	-13	80*	-9	11
COc1ccc2oc(C(=O)NCCN3CCOCC3)c(C)c2c1OC	-1	-9	i	4	4	1	0	3
COC(=O)[C@@H](NC(=O)NC1CCN(Cc2ccccc2)CC1)C(C)C	·	-33	i	8	8	·	-5	0
CCOC(=O)c1ccc(NC(=O)C2C3CCCCC32)cc1 (stereo not given)	-35	-28	i	3	-2	1	11	2
O=C(Nc1cccnc1Cl)c1cc(-c2cccc(O)c2)on1	-26	-17	i	-2	-1	6	-8	-8
O=C(Nc1ccc([N+](=O)[O-])cc1)c1cncc(Br)c1	-2	·	i	-8	-5	-12	23	-8
Cc1ccc(NC(=O)CN(C)C(=O)Cn2cc(C(F)(F)F)ccc2=O)cc1	-74	·	i	1	5	3	-3	22
Clc1ccccc1Cn1c(/C=C/c2ccco2)nc2ccccc21	3	·	i	-13	8	112*	70	0	eIF4H inh retest=11;PABP FP inh retest=22
Cc1cnc(NC(=O)/C=C/c2ccc(Br)o2)s1	-3	-6	i	2	0	-16	24	1
C=CCn1c(SCc2nnc(-c3ccccc3)o2)nnc1C(O)c1ccccc1 (stereo not given)	-17	-11	i	2	-1	16	-12	-4

Following part
SMILES	Env fusion inh	UUG fidelity	Rce1 inh	MT1-MMP act inh	MT1-MMP act inh RFP	CSC inhib	eIF4H inh	PABP FP inh	others
O=c1c(Cc2c(F)cccc2Cl)c(O)ccn1CCc1c[nH]c2ccccc12	-5	·	i	1	2	-7	1	-6
Cc1cc(C)c2c(N)c(C(=O)NNC(=O)c3ccccc3)sc2n1	-25	-3	i	-7	-1	9	-10	0
CC(C)Oc1ccc(CCC(=O)NNC(=O)CCC(=O)O)cc1	14	·	i	1	2	-8	3	11
Cc1ccc(OCC(=O)Nc2ccccc2C(=O)N2CCCC2)cc1	-7	-3	i	-3	-3	-1	-1	-2
CCOC(=O)N1CCC(NCCNC(=O)c2ccccc2Cl)CC1	-22	-19	i	-5	-1	-15	-4	2
CCN(CC)C(=O)C1CCN(c2ncnc3c2cnn3-c2ccc(C)cc2C)CC1	·	6	i	3	-6	0	3	-2
CCCC(CCC(=O)Nc1ccc(S(N)(=O)=O)cc1)C(=O)O (stereo not given)	-52	-18	i	8	3	-15	-3	5
Cc1cc(C(=O)O)oc(=O)c1	-22	-15	i	3	3	-7	-13	-1
O=C(CCc1ccco1)CCc1ccco1	3	-21	·	-2	4	·	·	·
CN(c1cccc(NC(=O)c2cccc([N+](=O)[O-])c2)c1)S(C)(=O)=O	-11	7	i	-1	2	-12	-6	-11
COc1ccc(N2C[C@H](CSC)[C@@H](CC(=O)Nc3ccccc3)C2=O)cc1	-8	18	·	0	-3	·	·	·
CCOC(=O)Nc1cccc(C(=O)O)c1	·	-10	i	1	5	-7	-5	-1
C#CCOCCOCCOCCNc1nc(N2CCN(C(=O)[C@H](CCCCN)n3cc(CN)nn3)CC2)nc(N2CCN(C(=O)[C@H](CCCN=C(N)N)n3cc(C(N)[C@H](C)CC)nn3)CC2)n1 (stereo not given in full)	0	62	·	1	4	-19	·	·
O=C1CCCC2=C1C(c1cccs1)n1ncnc1N2 (stereo not given)	·	·	i	-2	4	-13	10	-2
O=C(NCc1ccco1)c1cc([N+](=O)[O-])ccc1N1CCCCC1	-7	2	i	-1	-2	1	1	-4
O=[N+]([O-])c1cccc(N=NN(CCO)c2cccc([N+](=O)[O-])c2)c1	·	-15	i	5	-4	19	6	4
Cc1ccc(C)c(CN2CCCNC2=O)c1	-113	-12	i	1	-3	·	1	-1
COc1ccc2nc(NC(=O)C3=NN(c4ccccc4)C(=O)CC3)sc2c1	-3	·	i	1	-1	0	-9	14
COc1cnc(-c2ccccc2)nc1Oc1ccc(Cl)cc1C	6	·	·	-4	3	-4	-5	12
COCCCNC(=O)CN(c1cc(Cl)cc(Cl)c1)S(C)(=O)=O	·	·	i	1	1	-3	1	5
O=C(CCN1C(=O)c2ccccc2S1(=O)=O)Nc1nc2c(s1)CCCC2	·	1	i	1	2	1	-6	8

Some of the compounds tested; the hit share may differ from the screen's.
